# From PubChem BioAssay
# UCH37 inh – blocks the human deubiquitinase UCH37; purified proteasome/UCH37, Ub-AMC cleavage fluorescence; inhibition, % (test concentration not listed); 330,000 compounds, 0.33% hits;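 active means mean of two replicates above 20%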;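 further: 0% = compound-free wells with enzyme and 100% = wells lacking proteasome; stock transfer was 100 nL into about 20 µL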
# Target sequence (Q9Y5K5 whole entry, looked up): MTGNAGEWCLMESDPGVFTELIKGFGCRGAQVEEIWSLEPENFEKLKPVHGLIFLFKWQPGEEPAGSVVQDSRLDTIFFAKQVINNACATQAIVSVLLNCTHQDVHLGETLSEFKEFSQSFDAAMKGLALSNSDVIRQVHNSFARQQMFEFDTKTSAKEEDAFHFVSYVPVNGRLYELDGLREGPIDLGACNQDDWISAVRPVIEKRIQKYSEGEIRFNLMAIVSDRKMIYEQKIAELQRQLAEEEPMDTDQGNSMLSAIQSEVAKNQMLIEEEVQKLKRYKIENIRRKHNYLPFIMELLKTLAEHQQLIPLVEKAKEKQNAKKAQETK
#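 assay system = human UCH37 enzyme supplied as purified proteasome complex | amount = proteasome at 0.15 nM in the dispensed enzyme solution | schedule = 30 min compound-proteasome preincubation then 25 min substrate reaction, room temperature | measured by = fluorescence, ex 355 nm, em 460 nm | benchmarks = no-proteasome wells (full inhibition) and compound-free wells (no inhibition)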
# A1 inh – inhibitors of the anti-apoptotic protein A1, read as caspase activation. MEF A1-2A-BIM cells, Caspase-Glo 3/7 luminescence, 3 h; percent of clofoctol response, vehicle zero. 330,000 compounds, 0.066% hits. caspase activation, % (test concentration not listed). AID 2462;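 active means over half of replicate activation scores above 10%, or exactly half above 10 with the replicate mean above 10; inconclusive means replicate mean below 10 yet half the replicates above 10; inactive means over half of replicates below 10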;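 further: wells of about 30 µL received 50 nL stock; many hits fall short of the cut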
# MLL AF4-AF9 inh – blocks AF4 peptide binding to human AF9; 350,000 compounds, 0.47% hits; inhibition, % at 10 µM; AlphaScreen, biotin-AF4 peptide binding to FLAG-AF9;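 active means every replicate reaching a set inhibition limit, whatever the replicate mean, cut at about 25% in these data; inconclusive means mean inhibition reaches that limit but some replicates miss it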;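 further: 0% = plate neutral control median and 100% = total signal loss; the record names both 10 and 1 µM as test concentration; the first replicate is given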
# Target sequence (P42568 whole entry, looked up): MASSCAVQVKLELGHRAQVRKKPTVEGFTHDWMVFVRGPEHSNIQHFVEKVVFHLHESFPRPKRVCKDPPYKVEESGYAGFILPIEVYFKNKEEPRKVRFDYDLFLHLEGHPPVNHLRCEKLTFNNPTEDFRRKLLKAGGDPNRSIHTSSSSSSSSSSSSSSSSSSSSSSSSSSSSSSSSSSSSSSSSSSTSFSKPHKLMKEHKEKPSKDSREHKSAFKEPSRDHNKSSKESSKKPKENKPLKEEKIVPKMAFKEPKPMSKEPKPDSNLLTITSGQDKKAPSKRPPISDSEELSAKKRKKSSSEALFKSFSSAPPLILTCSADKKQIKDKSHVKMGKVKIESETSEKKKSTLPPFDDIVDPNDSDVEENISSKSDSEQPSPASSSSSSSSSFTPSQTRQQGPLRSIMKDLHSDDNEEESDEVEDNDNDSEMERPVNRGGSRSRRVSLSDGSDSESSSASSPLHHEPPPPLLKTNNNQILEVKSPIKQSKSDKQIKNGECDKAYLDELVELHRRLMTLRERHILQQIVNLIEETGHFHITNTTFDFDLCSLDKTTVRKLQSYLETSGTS
# Beta cell apopt – beta cell apoptosis inhibition; INS-1E cytokine-induced death, ATP luminescence, 48 h; percent of positive-control rescue, neutral wells zero; AID 435005; 300,000 compounds, 0.8% hits; protection from apoptosis, % (test concentration not listed);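 active means all replicates at 75% or more, or half of them and the mean; inconclusive means half reach 75% but not the mean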;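 further: 0% = cytokine-treated negative control wells and 100% = positive control rescue; higher means more ATP so stronger rescue from cytokine killing; wells of about 40 µL received 100 nL stock; the first replicate is given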
# FGF22 binding – FGF22 (human) thermal shift binding. 340,000 compounds, 1.5% hits. Q9HCT0. recombinant FGF22 thermal shift, SYPRO orange fluorescence; percent of sucrose octasulfate shift, DMSO zero. calls only at 9.99 µM;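 active means melting point raised past a set limit in the mean and every replicate; inconclusive means no clear call; three in four hits are not shown here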
# Target sequence (Q9HCT0 whole entry, looked up): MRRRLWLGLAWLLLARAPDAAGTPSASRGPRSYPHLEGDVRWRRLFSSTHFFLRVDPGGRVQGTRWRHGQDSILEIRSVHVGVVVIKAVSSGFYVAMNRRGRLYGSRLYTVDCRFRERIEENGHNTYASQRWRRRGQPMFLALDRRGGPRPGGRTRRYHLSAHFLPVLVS
# T cruzi repl – blocks replication of Trypanosoma cruzi; T. cruzi beta-gal in NIH3T3, luminescence, 90 h; inhibition, % (concentration not given with the values); 300,000 compounds, 1.4% hits; AID 1885;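 active means mean inhibition across valid replicates above about 55%, limit read from the data; inconclusive means mean below that limit but half or more replicates reach it; inactive means mean below it, under half of replicates reach it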;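 further: signal also drops with host cell toxicity which is not excluded here; 0% = plate median of DMSO wells and 100% = zero luminescence signal; higher percent means less beta-gal luminescence so fewer parasites; stock transfer was 50 nL into about 50 µL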
# Ecoli rRNA inh – selective bacterial rRNA inhibition in E. coli | E. coli WT GFP vs humanized-ribosome RFP mutants, fluorescence, 24 h; stronger effect = lower value; DMSO median 0, no signal -100 | GFP signal change (wild-type ribosome), % (concentration not given with the values) | 350,000 compounds, 1.6% hits;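 active means significant combined selectivity score with lowered wild-type GFP, culture density cut under 30%, mutant RFP and density less affected; inactive means any of these conditions unmet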; further: one replicate is shown; some compounds called inactive have numbers as strong as hits
# Ecoli growth – blocks Escherichia coli growth; OD600, 23 h; stronger effect = lower value; OD600 absorbance (concentration not given with the values); 330,000 compounds, 0.21% hits; AID 1053175;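 active means OD600 absorbance below the run mean of sample wells minus 3.6 SD, in any replicate, cut at about 0.56 in these data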;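 further: stock transfer was 300 nL into about 60 µL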
# Ecoli rRNA inh OD600 – recorded beside Ecoli rRNA inh, whose call it bears; OD600 change, %; measured here: OD600 growth;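 optical density of the mix in the first replicate; 0 = DMSO median and -100 = no signal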
# Ecoli rRNA inh RFP – recorded beside Ecoli rRNA inh, whose call it bears; RFP signal change, %; measured here: RFP humanized mutant strains;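 first replicate; 0 = DMSO median and -100 = no signal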
# An asterisk follows results filed as active; i = inactive; ? = inconclusive; · = no result given. An excerpt; count on the stated rates, not on these rows.
SMILES,UCH37 inh,A1 inh,MLL AF4-AF9 inh,Beta cell apopt,FGF22 binding,T cruzi repl,Ecoli rRNA inh,Ecoli rRNA inh OD600,Ecoli rRNA inh RFP,Ecoli growth
CCN1C(=O)N[C@@H](CCc2ccccc2)[C@@H](C(=O)OC)[C@H]1C,-0.6,0.3,·,-3.7,i,-10.3,-0.2,-1.9,-8.8,·
COc1ccc(OCC(O)CN2CCN(c3ccccc3)CC2)cc1 (stereo not given),0.0,1.6,2.5,-5.8,i,1.9,4.4,8.3,-6.8,0.623
O=C(CSc1nnc(-c2ccccc2O)o1)Oc1ccc(OCc2ccccc2)cc1,-91.9,-4.1,·,-2.0,·,0.6,·,·,·,0.729
Cc1cc(N2CCOCC2)nc(SCC(=O)c2ccccc2)n1,4.8,-1.0,-2.9,-2.3,i,2.4,-0.5,-8.3,-1.7,0.692
O=C(c1ccco1)N1CCN(C(c2ccccc2F)c2nnnn2CC2CCCO2)CC1 (stereo not given),2.3,0.6,·,-4.2,·,·,·,·,·,0.656
O=[N+]([O-])c1ccc(/C=N/Nc2ccnc3cc(Cl)ccc23)o1,·,-0.1,27.6*,106.9*,i,23.5,-64.2,-79.0,-21.1,·
Cc1onc(-c2ccccc2)c1C1=N/C(=C\c2ccccc2F)C(=O)O1,-29.1,-0.4,-1.0,-3.1,i,-20.0,13.3,9.5,-0.3,0.668
COc1ccc(N(C(=O)c2cnccn2)C(C(=O)NC2CCCCC2)c2ccccc2)cc1 (stereo not given),3.0,1.8,0.2,-3.5,i,-0.2,12.3,7.1,3.8,0.627
COCCNC(=O)c1ccccc1NC(=O)CSc1ccc(C)cc1,2.4,1.1,-0.8,-3.6,i,-13.5,0.2,2.4,3.4,0.662
Cc1ccc2nc(SCC(=O)NCc3ccco3)c(C#N)cc2c1,-2.5,-0.8,·,2.4,·,-7.2,·,·,·,0.733
Cc1ccc(-c2nc3ncccc3o2)cc1NC(=O)COc1ccccc1,-15.9,0.0,0.8,-0.2,i,11.2,1.7,5.4,-5.5,0.698
COc1cccc(CC(=O)Nc2cc(S(=O)(=O)N3CCOCC3)ccc2OC)c1,4.2,·,-0.6,·,·,·,3.6,-1.5,2.2,0.671
CCOc1ncccc1C(=O)Nc1cccc(C(=O)Nc2cccc(S(=O)(=O)CCO)c2)c1,1.4,0.9,·,-1.1,·,-3.1,·,·,·,0.674
Cc1ccccc1C(=O)N=c1ccn(-c2nc3ccccc3nc2NS(=O)(=O)c2ccc(F)cc2)cc1,0.1,-0.1,3.3,2.1,i,7.6,56.2,10.1,-2.5,0.689
COc1ccc(-c2[nH]nc3c2C(c2ccoc2)C(C#N)=C(N)O3)cc1 (stereo not given),-3.8,2.2,·,-15.3,·,-5.9,·,·,·,0.743
C/C(=N\NS(=O)(=O)c1ccc(Br)cc1)c1ccncc1,·,0.3,1.3,-13.3,i,-13.2,10.1,7.1,-1.2,·
O=C(c1cc2cc(F)ccc2[nH]1)N1CCN(C(=O)c2ccco2)CC1,5.1,-0.4,1.3,5.4,i,0.5,-3.3,-7.1,-0.6,0.695
Cc1ccccc1-n1c(-c2ccc3ccccc3n2)n[nH]c1=S,5.5,-0.1,·,-0.1,i,3.3,-32.6*,-19.2*,0.6*,0.674
Cc1oc(-c2ccccc2)nc1CS(=O)CC(=O)N1CCc2ccccc2C1 (stereo not given),6.4,-0.1,0.5,-3.8,i,0.7,3.0,7.1,2.9,0.695
COc1ccc(S(=O)(=O)N2CCN(c3ccccn3)CC2)c(OC)c1,-2.0,0.0,-1.4,-1.9,i,-9.0,7.8,1.9,2.8,0.657
N=C(N)SCCN,1.5,-0.1,-2.8,-17.9,i,·,8.6,4.0,3.3,0.672
Cc1cccc(C(=O)NCCC(=O)Nc2ccc(C#N)cc2)c1,2.4,1.6,-1.2,-0.1,i,-7.9,-0.2,1.5,-3.6,0.601
CCn1c(SCC(=O)Nc2ccc(S(=O)(=O)Nc3onc(C)c3C)cc2)nnc1-c1ccccc1,-0.2,0.2,·,-8.0,·,18.6,·,·,·,0.659
CC1(C)C=C(c2ccc(C=O)s2)CC(C)(C)N1C=O,-24.6,1.0,2.9,2.6,i,-8.3,·,·,·,0.667
NC(=O)CNC(=O)[C@@H]1CC2(CC(c3cccc(Br)c3)=NO2)CN1C(=O)c1ccc(Br)cc1 (stereo not given in full),-0.7,-0.6,0.0,-8.4,i,8.7,-51.9,-78.0,-25.7,0.764
Cc1cccc(N(CC(=O)NCC2CCCO2)C(=O)CNS(=O)(=O)c2ccc(Cl)cc2)c1 (stereo not given),4.2,0.1,-6.4,-8.6,i,2.8,-1.0,3.5,-0.9,0.663
OCCNc1c2ccccc2nc2ccccc12,-127.8,?,-1.8,·,i,59.0*,-25.8,-24.2,-5.9,0.572
Cc1ccc(S(=O)(=O)CCC(=O)OCC(=O)N2c3ccccc3CC2C)cc1 (stereo not given),0.9,-0.8,-2.7,-17.0,i,-0.7,3.2,6.6,2.8,0.679
CSc1ccc(/C=C/c2cc(=O)c3ccccc3[nH]2)cc1,-99.0,-2.1,·,-1.1,·,7.4,·,·,·,0.667
COc1ccc(N2CCN(C(=O)CCCn3nnnc3CN3CCOCC3)C(C)C2)cc1 (stereo not given),3.6,0.1,-0.4,·,i,-15.7,10.0,3.5,-1.9,0.74
CCCN1C(=O)/C(=C2\SC(N3CCCCC3)=NC2=O)c2ccccc21,4.4,-0.7,·,·,·,36.7,·,·,·,0.733
CNC(=O)COC(=O)c1ccc(Cl)c(S(N)(=O)=O)c1,6.2,-0.3,-3.9,-9.8,i,-7.7,15.8,10.8,8.7,0.671
COCCNC(=O)c1ccc2nc(Cc3ccc(OC)c(OC)c3)oc2c1,3.9,0.2,1.1,-1.7,i,-12.3,4.9,10.2,-1.9,0.669
COc1ccc(C(=O)N2CCC(C(=O)O)CC2)c2ccccc12,1.5,0.2,2.4,-0.9,i,-16.8,-3.2,-4.1,-1.8,0.678
O=C(NCC(c1cccs1)N1CCOCC1)c1cccc(S(=O)(=O)Nc2ccc(F)cc2)c1 (stereo not given),4.8,·,-0.3,·,i,·,-1.1,-7.2,0.4,0.672
O=C(COc1ccccc1)N1CCN(c2ccccc2)CC1,0.1,0.4,0.4,1.6,·,-20.8,8.0,-0.8,-2.1,0.714
O=C(C1CCN(c2nnc(-n3cccc3)s2)CC1)N1CCCCC1,2.0,-1.4,0.5,-1.9,i,-27.1,-0.6,-6.6,1.1,0.672
Cn1cc(CN2CCC(C(=O)Nc3ccc(Oc4ccccc4F)cc3)CC2)cn1,·,·,11.5,·,i,9.1,5.5,1.6,-0.4,·
CCOC(=O)C1(Cc2ccccc2C(F)(F)F)CCN(C2CCN(C(C)=O)CC2)CC1,1.6,-0.2,-2.7,-1.8,·,2.3,14.8,9.1,1.8,0.669
COc1ccccc1NC(=O)NCCC1=CCCCC1,1.2,-0.1,-6.3,-0.3,i,17.0,-4.6,-1.1,1.2,0.701
CC1CCCN(C(=O)COC(=O)CNC(=O)c2ccc(Br)cc2)C1 (stereo not given),0.8,2.0,-4.8,-3.4,i,-8.7,4.9,1.3,-1.1,0.671
CCn1c2ccccc2c2cc(NC(=O)C(=O)NCC3CCCO3)ccc21 (stereo not given),-0.7,0.0,-0.4,9.4,i,2.0,-0.5,8.0,0.6,0.724
COc1ccc(SC[C@H](C)CN2CC[C@H](C(C)(C)C)CCC2=O)cc1,5.7,-2.0,-5.5,-5.7,i,·,-45.2,-72.8,-6.5,·
O=C(c1cc(-c2ccccc2Cl)nc2ccccc12)N1CCOCC1,2.7,0.9,-3.6,-1.2,i,-21.4,4.2,-3.0,0.8,0.676
COC(=O)c1[nH]c2cccc(C)c2c1NC(=O)CN1CCN(c2ccccc2OC)CC1,2.4,0.7,·,-3.3,·,9.8,·,·,·,0.746
CCNc1ccc(Br)cc(C(=O)/C=C/c2ccccc2Cl)c1=O,8.2,1.7,·,-1.5,·,-25.3,·,·,·,0.749
CC(=O)Nc1ccc(S(=O)(=O)N2CCSC2c2ccc(C)cc2)cc1 (stereo not given),1.0,0.2,·,0.1,·,-2.2,·,·,·,0.701
O=C(O)C1(C(=O)O)CCCC1,1.2,·,7.1,·,i,·,12.3,9.9,4.1,0.71
COc1ccc(C2=NS(=O)(=O)N(C)C(C(=O)N(C)Cc3ccccc3)=C2)cc1,6.0,0.0,0.0,2.3,i,-7.7,-2.6,-16.8,2.3,0.723
C/C(=N/NS(=O)(=O)c1ccc(C(C)(C)C)cc1)c1ccc2c(c1)OCO2,·,-0.5,-0.2,-8.0,i,-11.1,-1.4,-11.6,5.1,·
CCCS(=O)(=O)N1CCCC(C(=O)Oc2ccccc2Cl)C1 (stereo not given),0.8,-0.4,-3.2,-7.7,i,-20.0,-3.9,-5.4,0.4,0.689
CN1CCN(C(=O)CCC(=O)NCc2ccc(F)cc2)CC1,4.8,0.1,2.4,-1.9,i,-27.5,5.7,8.0,-3.0,0.654
COc1ccc(C2CC(c3ccccc3)=NN2C(=O)CSc2ncccn2)cc1 (stereo not given),4.8,-0.4,1.8,-2.3,i,7.7,-5.6,-4.6,12.0,0.686
COc1ccc(C(=O)NCC(=O)N/N=C/c2ccco2)cc1OC,·,0.0,-3.5,-4.3,i,-16.6,4.6,9.7,-2.6,·
COCc1nnc(NC(=O)CCCOc2ccccc2OC)s1,1.6,1.4,·,-8.2,·,-10.4,·,·,·,0.734
Cc1ccccc1N1CCN(Cc2cc3c(cc2[N+](=O)[O-])OCO3)CC1,4.2,1.1,12.8,-9.5,i,4.4,-24.4,-45.2,-15.7,0.66
Nc1sc(-c2ccccc2)cc1-c1n[nH]c(=S)n1C1CCCCC1,·,-0.6,5.3,13.7,i,-32.7,-3.4,13.6,18.4,·
CC1CC(=O)C2=C(C1)Nc1ccccc1N(C(=O)COc1ccccc1)C2c1ccco1 (stereo not given),0.3,0.4,·,-4.8,·,3.2,·,·,·,0.668
COc1ccc(C(=O)SC2=NCCS2)cc1OC,5.0,-0.3,·,-4.2,·,-6.4,·,·,·,0.729
Cc1sc2nc(Cc3ccccc3)[nH]c(=O)c2c1-c1ccccc1,2.4,-0.5,·,3.1,·,-11.4,·,·,·,0.662
O=C(NCCc1ccccc1)c1cc(S(=O)(=O)N2CCCC2)ccc1F,·,1.8,-5.4,-1.9,i,-0.5,0.7,3.1,-2.4,·

# Rewritten with two lines to a compound: 2 of the compounds above
# Values run as follows: UCH37 inh | A1 inh | MLL AF4-AF9 inh | Beta cell apopt | FGF22 binding | T cruzi repl | Ecoli rRNA inh | Ecoli rRNA inh OD600 | Ecoli rRNA inh RFP | Ecoli growth
- CC1CCCN(C(=O)COC(=O)CNC(=O)c2ccc(Br)cc2)C1 (stereo not given)
 : 0.8 | 2.0 | -4.8 | -3.4 | i | -8.7 | 4.9 | 1.3 | -1.1 | 0.671
- CCn1c2ccccc2c2cc(NC(=O)C(=O)NCC3CCCO3)ccc21 (stereo not given)
 : -0.7 | 0.0 | -0.4 | 9.4 | i | 2.0 | -0.5 | 8.0 | 0.6 | 0.724
